HIV Env fusion: HIV envelope-mediated fusion inhibition; HeLa-JRFL Env/CEM21 cell fusion, luciferase; inhibition, % at 12.3 µM; 360,000 tested, 1.1% active; AID 651610;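 active means mean replicate inhibition score of at least 50 and every replicate individually at or above 50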;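 further: 0% = plate neutral controls and 100% = maraviroc near 300 nM; one replicate is shown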
UUG fidelity: alters start codon recognition fidelity in yeast | S. cerevisiae UUG-firefly luciferase reporter, luminescence/redox ratio | activity score, % at 18.7 µM | 350,000 tested, 0.13% active;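 active means replicate mean at a twofold rise or more, about +100% in these data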;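 further: firefly luciferase made from a UUG start codon reports start codon fidelity; reporter light over untreated wells divided by growth signal over untreated wells; some hits fall short of that in this replicate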
* = called active by the depositor; [ ] = another dose, or the depositor's remark. The list is partial; the hit share may differ from the screen's.

nr | structure | HIV Env fusion | UUG fidelity
1 | C[C@H]1CN([C@@H](C)CO)C(=O)c2cc(NS(=O)(=O)c3ccc(Cl)cc3)ccc2O[C@H]1CN(C)C(=O)Nc1cccc2ccccc12 | -11[16.7 µM] | -7
2 | CC(C)NC(=O)Nc1ccc2c(c1)C(=O)N(C)[C@@H]1CC[C@H](CC(=O)Nc3ccccc3)O[C@@H]1CO2 | 3[16.7 µM] | 2
3 | COc1ccc(S(=O)(=O)N(C)C[C@H]2OCCCC[C@H](C)Oc3ccc(NC(=O)c4ccccc4)cc3C(=O)N([C@@H](C)CO)C[C@H]2C)cc1 | 7[16.7 µM] | -17
4 | CN(C)CC(=O)N[C@@H]1CC[C@@H](CCn2cc(C3CC3)nn2)O[C@H]1CO | -4[16.7 µM] | -3
5 | C[C@H](CO)N1C[C@H](C)[C@H](CN(C)CC2CCCCC2)Oc2c(NC(=O)C3CC3)cccc2C1=O | -5[16.7 µM] | -12
6 | CC(C)NC(=O)N[C@@H]1CC[C@@H](CCn2cc(-c3ccc(F)cc3)nn2)O[C@@H]1CO | 10[16.7 µM] | -15
7 | CCNC(=O)C[C@H]1C=C[C@@H](NS(=O)(=O)c2ccc(C)cc2)[C@H](CO)O1 | 4[16.7 µM] | -18
8 | COCCNC(=O)C[C@H]1C[C@H]2c3cc(NC(=O)COC)ccc3O[C@H]2[C@H](CO)O1 | -12[16.7 µM] | 0
9 | O=C(N[C@@H]1CC[C@@H](CCn2cc(C3(O)CCCC3)nn2)O[C@H]1CO)C1CC1 | -8[16.7 µM] | -11
10 | C[C@@H]1CN([C@H](C)CO)C(=O)c2cc(NC(=O)c3ccncc3)ccc2O[C@H]1CN(C)Cc1ccncc1 | -4[16.7 µM] | -24
11 | CC(C)NC(=O)Nc1ccc2c(c1)C(=O)N([C@H](C)CO)C[C@H](C)[C@H](CN(C)S(=O)(=O)c1ccccc1)OCCCC[C@H](C)O2 | 39[16.7 µM] | -7
12 | Cc1ccc(-c2ccc3c(c2)O[C@H](CN(C)Cc2cccnc2)[C@@H](C)CN([C@H](C)CO)S3(=O)=O)cc1 | 79*[16.7 µM] | 24
13 | O=C(C[C@@H]1CC[C@H](NS(=O)(=O)c2ccccc2)[C@H](CO)O1)NCCN1CCCCC1 | -4[16.7 µM] | -18
14 | N#C[C@@H]1[C@H](c2ccc(C3=CCCCC3)cc2)[C@H](CO)N1C(=O)c1ccccn1 | 1[16.7 µM] | 0
15 | C[C@H](CO)N1C[C@H](C)[C@@H](CN(C)C(=O)C2CCC2)Oc2ncc(-c3cccnc3)cc2C1=O | -7[16.7 µM] | -3
16 | COCC(=O)Nc1ccc2c(c1)[C@@H]1C[C@H](CC(=O)N3CCCCC3)O[C@@H](CO)[C@@H]1O2 | 11[16.7 µM] | 26
17 | Cc1noc(C)c1S(=O)(=O)Nc1ccc2c(c1)CC(=O)N([C@H](C)CO)C[C@@H](C)[C@@H](CN(C)CC1CCCCC1)O2 | -7[16.7 µM] | 10
18 | CNC(=O)C[C@H]1CC[C@@H]2[C@H](COC[C@H](O)CN2Cc2ccc(Cl)c(Cl)c2)O1 | 1[16.7 µM] | -8
19 | CO[C@H]1CN(C)C(=O)c2cc(NC(=O)c3cnccn3)ccc2OC[C@@H](C)N(C)C[C@@H]1C | -9[16.7 µM] | -8
20 | C[C@H]1CN([C@@H](C)CO)C(=O)c2cc(NC(=O)Nc3ccc4c(c3)OCO4)ccc2O[C@@H]1CN(C)S(=O)(=O)c1cccs1 | -24[16.7 µM] | -1
21 | C[C@@H]1CN([C@H](C)CO)C(=O)Cc2cc(NC(=O)CCCCCC(=O)Nc3ccccc3N)ccc2O[C@@H]1CN(C)Cc1ccccc1 | 9[16.7 µM] | 10
22 | C[C@@H]1CN([C@H](C)CO)C(=O)CCCn2cc(nn2)CO[C@H]1CN(C)C(=O)CCCN(C)C | 4[16.7 µM] | -5
23 | CN(C)c1ccc2c(c1)[C@@H]1C[C@@H](CC(=O)NCc3ccc(Cl)cc3)O[C@H](CO)[C@@H]1O2 | -8[16.7 µM] | -23
24 | C[C@@H]1CCCCO[C@H](CN(C)CC2CCCCC2)[C@H](C)CN([C@H](C)CO)C(=O)c2cc(NC(=O)Nc3ccc4c(c3)OCO4)ccc2O1 | -15[16.7 µM] | 5

Filtered by structure, those above containing sulfur.
nr | structure | HIV Env fusion | UUG fidelity
1 | C[C@H]1CN([C@@H](C)CO)C(=O)c2cc(NS(=O)(=O)c3ccc(Cl)cc3)ccc2O[C@H]1CN(C)C(=O)Nc1cccc2ccccc12 | -11[16.7 µM] | -7
3 | COc1ccc(S(=O)(=O)N(C)C[C@H]2OCCCC[C@H](C)Oc3ccc(NC(=O)c4ccccc4)cc3C(=O)N([C@@H](C)CO)C[C@H]2C)cc1 | 7[16.7 µM] | -17
7 | CCNC(=O)C[C@H]1C=C[C@@H](NS(=O)(=O)c2ccc(C)cc2)[C@H](CO)O1 | 4[16.7 µM] | -18
11 | CC(C)NC(=O)Nc1ccc2c(c1)C(=O)N([C@H](C)CO)C[C@H](C)[C@H](CN(C)S(=O)(=O)c1ccccc1)OCCCC[C@H](C)O2 | 39[16.7 µM] | -7
12 | Cc1ccc(-c2ccc3c(c2)O[C@H](CN(C)Cc2cccnc2)[C@@H](C)CN([C@H](C)CO)S3(=O)=O)cc1 | 79*[16.7 µM] | 24
13 | O=C(C[C@@H]1CC[C@H](NS(=O)(=O)c2ccccc2)[C@H](CO)O1)NCCN1CCCCC1 | -4[16.7 µM] | -18
17 | Cc1noc(C)c1S(=O)(=O)Nc1ccc2c(c1)CC(=O)N([C@H](C)CO)C[C@@H](C)[C@@H](CN(C)CC1CCCCC1)O2 | -7[16.7 µM] | 10
20 | C[C@H]1CN([C@@H](C)CO)C(=O)c2cc(NC(=O)Nc3ccc4c(c3)OCO4)ccc2O[C@@H]1CN(C)S(=O)(=O)c1cccs1 | -24[16.7 µM] | -1

3 structures already listed, arranged by length of the SMILES, ascending:
nr | structure | HIV Env fusion | UUG fidelity
18 | CNC(=O)C[C@H]1CC[C@@H]2[C@H](COC[C@H](O)CN2Cc2ccc(Cl)c(Cl)c2)O1 | 1[16.7 µM] | -8
23 | CN(C)c1ccc2c(c1)[C@@H]1C[C@@H](CC(=O)NCc3ccc(Cl)cc3)O[C@H](CO)[C@@H]1O2 | -8[16.7 µM] | -23
17 | Cc1noc(C)c1S(=O)(=O)Nc1ccc2c(c1)CC(=O)N([C@H](C)CO)C[C@@H](C)[C@@H](CN(C)CC1CCCCC1)O2 | -7[16.7 µM] | 10

Further records follow:
nr | structure | HIV Env fusion | UUG fidelity
25 | O=C(C[C@@H]1C[C@@H]2c3cc(NC(=O)Nc4ccccc4F)ccc3O[C@@H]2[C@@H](CO)O1)NCc1ccc(Oc2ccccc2)cc1 | 8[16.7 µM] | -15
26 | CC(C)C(=O)Nc1ccc2c(c1)C(=O)N(C)[C@@H]1CC[C@H](CC(=O)Nc3ccccc3)O[C@@H]1CO2 | 10[16.7 µM] | 7
27 | O=C(C[C@@H]1CC[C@@H]2[C@H](COC[C@H](O)CN2S(=O)(=O)c2cccc(F)c2)O1)NC1CCC1 | -4[16.7 µM] | 5
28 | COCC(=O)Nc1ccc2c(c1)OC[C@@H](C)N(CCc1ccccc1)C[C@@H](C)[C@@H](OC)CN(C)C2=O | 9[16.7 µM] | 2
29 | Cc1ccc(-c2cnc3c(c2)C(=O)N([C@H](C)CO)C[C@@H](C)[C@H](CN(C)C(=O)Cc2cccnc2)O3)cc1 | -15[16.7 µM] | 3
30 | C[C@@H]1CCCCO[C@H](CN(C)C(=O)Nc2ccccc2)[C@@H](C)CN([C@@H](C)CO)C(=O)c2cc(NS(=O)(=O)c3cccs3)ccc2O1 | -73[16.7 µM] | 8
31 | CO[C@H]1CN(C)C(=O)c2ccc(NS(=O)(=O)C3CCCCC3)cc2OC[C@@H](C)NC[C@H]1C | 4[16.7 µM] | -14
32 | COc1ccc(C#Cc2cnc3c(c2)C(=O)N([C@H](C)CO)C[C@H](C)[C@H](CN(C)C(=O)Nc2ccccc2)O3)cc1OC | -1[16.7 µM] | -5

Values by screen from the entries so far:
Compounds 25 to 30 in HIV Env fusion: 8[16.7 µM], 10[16.7 µM], -4[16.7 µM], 9[16.7 µM], -15[16.7 µM], -73[16.7 µM]

Continued.
nr | structure | HIV Env fusion | UUG fidelity
33 | CCCNC(=O)N[C@@H]1CC[C@H](CCn2cc(C3CC3)nn2)O[C@H]1CO | 4[16.7 µM] | 1
34 | Cc1noc(C)c1NC(=O)N(C)C[C@H]1OCCCC[C@@H](C)Oc2ccc(NC(=O)c3ccncc3)cc2C(=O)N([C@@H](C)CO)C[C@@H]1C | 18[16.7 µM] | 2
35 | O=C(Cc1ccccn1)NCC[C@@H]1CC[C@@H](NC(=O)Nc2ccccc2)[C@H](CO)O1 | 12[16.7 µM] | 15
36 | COCC(=O)N(C)C[C@H]1Oc2cc(-c3ccc(F)cc3)ccc2S(=O)(=O)N([C@H](C)CO)C[C@H]1C | -2[16.7 µM] | -6
37 | CCC(=O)Nc1ccc2c(c1)C(=O)N(C)[C@@H]1CC[C@H](CC(=O)N3CCCCC3)O[C@H]1CO2 | -16[16.7 µM] | -14
38 | C[C@H](NC(=O)C[C@@H]1C=C[C@@H](NC(=O)c2cccnc2)[C@H](CO)O1)c1ccccc1 | 28[16.7 µM] | -7
39 | C[C@@H]1CN([C@@H](C)CO)C(=O)c2cc(-c3ccccc3)cnc2O[C@@H]1CN(C)C(=O)c1ccccn1 | -11[16.7 µM] | 7
40 | C[C@@H]1CN([C@H](C)CO)S(=O)(=O)c2ccc(-c3cccnc3)cc2O[C@H]1CN(C)CC1CC1 | 0[16.7 µM] | 1
41 | C[C@@H]1CCCCO[C@@H](CN(C)S(=O)(=O)c2ccccc2)[C@@H](C)CN([C@@H](C)CO)C(=O)c2cc(NC(=O)Cc3ccccc3)ccc2O1 | 14[16.7 µM] | 13
42 | C[C@@H]1CN([C@@H](C)CO)C(=O)c2cc(C3=CCCC3)cnc2O[C@@H]1CN(C)C(=O)c1ccccc1 | 6[16.7 µM] | 6
43 | COCC(=O)Nc1ccc2c(c1)C(=O)N(C)[C@H]1CC[C@@H](CC(=O)Nc3ccccc3)O[C@@H]1CO2 | -8[16.7 µM] | 0
44 | C[C@H]1CN([C@@H](C)CO)S(=O)(=O)c2ccc(-c3cccc(F)c3)cc2O[C@@H]1CN(C)C(=O)c1cccc(F)c1 | 17[16.7 µM] | 5
45 | Cc1noc(C)c1NC(=O)N(C)C[C@H]1OCCCC[C@@H](C)Oc2ccc(NS(=O)(=O)c3ccc(Cl)cc3)cc2C(=O)N([C@@H](C)CO)C[C@@H]1C | -75[16.7 µM] | 2

High-throughput results: PubChem BioAssay, Broad Institute
